Assay outcomes from PubChem.
Lassa entry inh = blocks Lassa virus binding to or entry into cells. Lassa virus pseudotype entry inhibition, cell reporter; control for the full effect not named in the record. Potency, µM (top dose mostly 37.9 µM), for the others: top-dose activity change, negative = inhibition, actives largely listed as inhibitors. actives 1.2% (n = 300,000). AID 540256; active means well fitted inhibition curve with a large enough effect; inconclusive means small, poorly fitted or top-dose-only effect, or effect the other way; inactive means flat fitted curve, though single readings scatter; tested in HEK293 cells; note: % is set by controls: 0 for no effect and ±100 for the full control effect; nearly all actives have a fitted effect of over 50% in size; luciferase read-out
NS1 inh = blocks influenza NS1 protein function | S. cerevisiae slowed by influenza A NS1, growth recovery by OD600 | Potency, µM (highest dose often 46.1 µM), inactives show at the top dose activity, positive = more growth | actives 0.4% (n = 270,000); note: actives are rising curves; nearly all actives have a fitted effect of over 50% in size
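Recovery from NS1-induced slow growth read by OD600 in budding yeast switched to galactose assay medium (pH 6.0, -URA) at 1:100 dilution. Compound 23 nl per well; the matching strain lacking NS1 serves as control.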
2A StopGo = FMDV 2A StopGo reporter, luciferase signal | human cells with a luciferase reporter of 2A StopGo recoding; control for the full effect not named in the record | Potency, µM (series often up to 57.9 µM), for inactives: top-dose signal change, negative = less light | actives 1.2% (n = 410,000); active = well fitted falling curve with a large enough effect; inconclusive = small, poorly fitted or top-dose-only effect; inactive = no such curve, though single readings can be large or run the other way; tested in HEK293T cells; note: % is set by controls: 0 for no effect and ±100 for the full control effect; nearly all actives have a fitted effect of over 45% in size; luciferase light after 4 h
Marburg entry inh = inhibitors of Marburg virus binding or cell entry; AID 540276; Marburg virus pseudotyped entry inhibition, cell reporter; control for the full effect not named in the record; about a third of the inactives were read at about 46 µM; actives 1.8% (n = 300,000); Potency, µM (top dose mostly 37.8 µM), without a hit: at the top dose activity change, negative = inhibition, most hits filed as inhibitors; active = well fitted inhibition curve with a large enough effect; inconclusive = small, poorly fitted or top-dose-only effect, or effect the other way; inactive = flat fitted curve, though single readings scatter; tested in HEK293 cells; about a fifth of its hits are not listed in these tables; note: % is set by controls: 0 for no effect and ±100 for the full control effect; luciferase read-out
SARS PLpro yeast = inhibitors of SARS-CoV papain-like protease in yeast | Potency, µM (doses to about 32.9 µM), inactives show at the top dose activity, positive = growth rescue | AID 485353 | S. cerevisiae expressing SARS-CoV PLpro, growth rescue; control for the full effect not named in the record | actives 0.19% (n = 330,000); note: 0% is about no effect; nearly all actives have a fitted effect of over 55% in size; growth read by luminescence after 48 h
RE007 growth inh = less growth of the S. pombe RE007 Vpr strain; S. pombe RE007 Vpr strain, BacTiter-Glo ATP luminescence, 24 h; control for the full effect not named in the record; Potency, µM (doses to about 92.2 µM), inactives show at the top dose activity change, negative = less growth; actives 0.21% (n = 360,000); AID 651644; active = well fitted falling curve with a large enough effect; inconclusive = small, poorly fitted or top-dose-only effect; inactive = no such curve, though single readings can be large or run the other way;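 note: % is set by controls: 0 for no effect and ±100 for the full control effect; nearly all actives have a fitted effect of over 50% in size; the assay follows cell death caused by Vpr and the record does not say whether a fall means rescue or toxicity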
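Fission yeast RE007 carrying one integrated HIV-1 vpr copy, seeded at OD 0.01 in PMG+AL medium with 23 nL pinned compound. Grown 24 h at 30 degrees; viability read by BacTiter-Glo luminescence after 5 min.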
Cruzain Triton = inhibitors of Trypanosoma cruzi cruzain with detergent; purified cruzain, Z-FR-AMC fluorescence, 0.01% Triton; Potency, µM, inactives show max response, negative = inhibition, most hits filed as inhibitors; actives 0.43% (n = 200,000); active = well fitted curve in the direction sought with a large enough effect; inconclusive = small, poorly fitted or top-dose-only effect, or another doubt; inactive = no such curve, though single readings can be large; an effect the other way counts as inactive or inconclusive;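 note: plate controls were neutral wells for no effect and buffer without enzyme for full effect; nearly all actives have a fitted effect of over 40% in size; top concentration of the series not given in the record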
Target sequence (P25779 123-467 limits assumed): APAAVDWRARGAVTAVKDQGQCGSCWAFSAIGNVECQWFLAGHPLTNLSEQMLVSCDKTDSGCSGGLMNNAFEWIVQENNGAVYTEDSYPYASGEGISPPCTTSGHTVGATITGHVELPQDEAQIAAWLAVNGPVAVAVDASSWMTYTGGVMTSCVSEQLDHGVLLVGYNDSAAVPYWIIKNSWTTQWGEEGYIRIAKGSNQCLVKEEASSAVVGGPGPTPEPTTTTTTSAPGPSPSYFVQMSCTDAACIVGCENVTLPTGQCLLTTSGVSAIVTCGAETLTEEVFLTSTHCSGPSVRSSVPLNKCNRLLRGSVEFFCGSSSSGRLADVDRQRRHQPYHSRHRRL
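Purified cruzain (1.5 nM final) was preincubated with compounds for 15 min at room temperature in 100 mM sodium acetate pH 5.5, 5 mM DTT, 0.01% Triton X-100. Reaction started with 2 uM Z-FR-AMC; AMC fluorescence change over 60 s gave activity.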
Cruzain noTriton = cruzain (T. cruzi) inhibition without detergent | P25779 | purified cruzain, Z-FR-AMC fluorescence, no detergent | Potency, µM, without a hit: max response, negative = inhibition, usual class: inhibitors | actives 2.3% (n = 200,000) | AID 1476; active = well fitted curve in the direction sought with a large enough effect; inconclusive = small, poorly fitted or top-dose-only effect, or another doubt; inactive = no such curve, though single readings can be large; an effect the other way counts as inactive or inconclusive;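 note: plate controls were enzyme without inhibitor for no effect and buffer without enzyme for full effect; nearly all actives have a fitted effect of over 40% in size; top concentration of the series not given in the record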
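Detergent-free condition (0.00005% Triton X-100) in acetate buffer pH 5.5 with DTT. 1.5 nM enzyme and compound were pre-mixed 15 min, then 2 uM Z-FR-AMC substrate added; reaction progress from fluorescence change between first and third reads (60 s).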
Active calls of the source: *; ? = inconclusive; . = not tested or not shown; [ ] = dose if it differs, or a comment. Unless noted, calls come from the whole dose curve; as a rule, active means well fitted rising curve with a large enough effect; inconclusive means small, poorly fitted or top-dose-only effect; inactive means no such curve, though single readings can be large or run the other way. Potency is the fitted concentration of half-maximal effect. Outcome played no part in choosing rows; any-hit rate near 4.5%.

compound	Lassa entry inh	NS1 inh	2A StopGo	Marburg entry inh	SARS PLpro yeast	RE007 growth inh	Cruzain Triton	Cruzain noTriton
COc1cc(/C=C2\SC(=Nc3ccccc3OC)NC2=O)ccc1O	?	-2.9%	7.0%	?	0.6%	-2.3%	.	.
Cc1nnc(NC(=O)CSc2nnc(-c3ccco3)o2)s1	14.1%[46.1 µM]	.	-13.8%	7.6%[46.1 µM]	-5.6%	3.2%	.	.
CCOc1ccc(NC(=O)Nc2ccc3snnc3c2)cc1	26.8%[46.1 µM]	.	8.7%	1.9%[46.1 µM]	.	.	-5.3%	7.9%
COc1cc(/C=N/NC(=O)CNC(=O)c2ccncc2)ccc1O	16.4%[46.1 µM]	15.7%	2.8%	16.8%[46.1 µM]	-7.3%	1.9%	.	.
COc1ccc(OC)c(NC(=O)Cn2c(CCC(=O)O)ccc2-c2ccc(C)cc2)c1	-26.8%[46.1 µM]	.	-12.0%	-10.5%[46.1 µM]	-1.8%	0.9%	.	.
CCCCN(C(=O)C1CC(=O)N(c2ccc3c(c2)OCCO3)C1)c1c(N)n(CCC)c(=O)[nH]c1=O (configuration not stated)	2.5%	.	-13.9%	-19.1%	0.6%	-18.0%	.	.
O=C1C=C(NC2CC2)C2(CCCCC2)O1	0.6%	?	-12.2%	3.1%	1.4%	-1.4%	-8.1%	-8.4%
CCN(CC)C(=O)CCCSc1nnc(Nc2ccccc2F)s1	-16.0%[46.1 µM]	.	23.3%	?	-0.3%	-4.6%	.	.
COc1cccc(N(CC(=O)Nc2ccccc2C)S(C)(=O)=O)c1	-7.4%	-2.5%	.	0.5%	6.0%	6.3%	3.6%	-1.7%

3 compounds from above, arranged by length of the SMILES, falling:
compound	Lassa entry inh	NS1 inh	2A StopGo	Marburg entry inh	SARS PLpro yeast	RE007 growth inh	Cruzain Triton	Cruzain noTriton
COc1ccc(OC)c(NC(=O)Cn2c(CCC(=O)O)ccc2-c2ccc(C)cc2)c1	-26.8%[46.1 µM]	.	-12.0%	-10.5%[46.1 µM]	-1.8%	0.9%	.	.
COc1cc(/C=C2\SC(=Nc3ccccc3OC)NC2=O)ccc1O	?	-2.9%	7.0%	?	0.6%	-2.3%	.	.
CCN(CC)C(=O)CCCSc1nnc(Nc2ccccc2F)s1	-16.0%[46.1 µM]	.	23.3%	?	-0.3%	-4.6%	.	.

An excerpt from above in order of number of heavy atoms, lowest first:
compound	Lassa entry inh	NS1 inh	2A StopGo	Marburg entry inh	SARS PLpro yeast	RE007 growth inh	Cruzain Triton	Cruzain noTriton
O=C1C=C(NC2CC2)C2(CCCCC2)O1	0.6%	?	-12.2%	3.1%	1.4%	-1.4%	-8.1%	-8.4%
Cc1nnc(NC(=O)CSc2nnc(-c3ccco3)o2)s1	14.1%[46.1 µM]	.	-13.8%	7.6%[46.1 µM]	-5.6%	3.2%	.	.
CCOc1ccc(NC(=O)Nc2ccc3snnc3c2)cc1	26.8%[46.1 µM]	.	8.7%	1.9%[46.1 µM]	.	.	-5.3%	7.9%
CCN(CC)C(=O)CCCSc1nnc(Nc2ccccc2F)s1	-16.0%[46.1 µM]	.	23.3%	?	-0.3%	-4.6%	.	.
COc1cc(/C=C2\SC(=Nc3ccccc3OC)NC2=O)ccc1O	?	-2.9%	7.0%	?	0.6%	-2.3%	.	.
COc1ccc(OC)c(NC(=O)Cn2c(CCC(=O)O)ccc2-c2ccc(C)cc2)c1	-26.8%[46.1 µM]	.	-12.0%	-10.5%[46.1 µM]	-1.8%	0.9%	.	.
CCCCN(C(=O)C1CC(=O)N(c2ccc3c(c2)OCCO3)C1)c1c(N)n(CCC)c(=O)[nH]c1=O (configuration not stated)	2.5%	.	-13.9%	-19.1%	0.6%	-18.0%	.	.
